Rango complex inh: prevents formation of the Rango-importin beta complex. AID 540263. Q14974. hit rate 0.031% among 340,000. Potency, µM (doses to about 92.2 µM), without a hit: at the highest dose inhibition of complex formation. Rango CFP/YFP FRET sensor + importin beta, 45 min; active = rising FRET ratio curve, often small or poorly fitted; inconclusive = mostly compound fluorescence or quenching in the first reads; inactive = flat curves in all reads;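 note: potency is the fitted concentration of half-maximal effect; 0% = DMSO wells and 100% = buffer wells lacking importin beta; nearly all actives have a fitted effect of over 15% in size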
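FRET biosensor (snurportin 1 IBB flanked by EYFP and cerulean), 50 nM, with compound 5 min, then 0.125 microM importin beta in PBS, 1 mM DTT, 0.02% Tween-20, 0.1% BSA. CFP/YFP ratio read after 45 min at room temperature; pre-read flags interference.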
miR-21 reporter: raises the signal of a miR-21 reporter | 340,000 tested, under 10 active | HeLa miR-21 FLuc reporter, luciferase, 48 h | Potency, µM (titrated, usually from 38.3 µM), for inactives: at the highest dose reporter change, positive = more light | AID 2288; active = well fitted rising curve with a large enough effect; inconclusive = small, poorly fitted or top-dose-only effect; inactive = no such curve, though single readings can be large or run the other way;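 note: % of control where 0% means no effect; miR-21 action dims this reporter so a rising signal means less miR-21 action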
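HeLa cells stably expressing CMV-driven firefly luciferase with a downstream miR-21 binding sequence, endogenously expressing miR-21, were treated with titrations (up to about 40uM final) for 48 hours at 37 degree Celsius. Luciferase luminescence was read after lysis.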
GLA inh pH 4.5: blocks human alpha-galactosidase A at pH 4.5; P06280; purified enzyme, 4-MU-alpha-Gal fluorescence, pH 4.5; activity change, negative = inhibition, % at 105 µM; 230,000 tested, under 10 active; inconclusive = small, poorly fitted or top-dose-only inhibition, or a rising curve; inactive = flat fitted curve, though single readings scatter; no compound was filed as active;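 note: 0% = full activity with enzyme and -100% = basal without enzyme; dose as in the result columns while the protocol names 77 µM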
Target sequence (P06280 whole entry, looked up): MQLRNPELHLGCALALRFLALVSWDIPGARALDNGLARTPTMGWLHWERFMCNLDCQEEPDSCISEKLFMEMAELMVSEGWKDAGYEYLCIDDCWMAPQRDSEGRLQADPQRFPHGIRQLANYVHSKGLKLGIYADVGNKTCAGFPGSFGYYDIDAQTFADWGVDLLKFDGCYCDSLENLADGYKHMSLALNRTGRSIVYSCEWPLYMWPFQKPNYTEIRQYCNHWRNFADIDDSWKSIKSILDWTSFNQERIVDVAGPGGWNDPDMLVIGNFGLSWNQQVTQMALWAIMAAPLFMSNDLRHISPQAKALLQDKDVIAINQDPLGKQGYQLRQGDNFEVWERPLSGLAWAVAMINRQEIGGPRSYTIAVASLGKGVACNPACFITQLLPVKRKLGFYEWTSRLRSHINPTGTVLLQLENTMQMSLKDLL
Rango release inh: inhibitors of RanGTP-induced Rango-importin beta complex dissociation; O95149+P62826; Biochemical FRET Rango-importin beta, RanGTP-induced dissociation; Potency, µM (series often up to 46.1 µM), for inactives: at the highest dose activity change, negative = inhibition; hit rate 0.071% among 340,000; active means falling FRET ratio curve, often poorly fitted, with flat reads before Ran was added; inconclusive means other falling curves, or compound fluorescence or quenching; inactive means flat or rising ratio curve;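 note: potency is the fitted concentration of half-maximal effect; % of control where 0% means no effect; nearly all actives have a fitted effect of over 45% in size; -100% = wells without RanGTP and RCC1; the record marks most hits as doubtful in a second field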
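Rango (0.1 uM)–importin beta (0.25 uM) complex; RanGTP-RCC1 trigger; 45 min RT; CFP/YFP FRET read.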
Numbers without * were called inactive; ? = inconclusive; / = no result given. Only part of the results is shown, so the mix of outcomes need not match the whole.

Rango complex inh,miR-21 reporter,GLA inh pH 4.5,Rango release inh,Molecule
/,2%,19,/,C=CCNC(=O)c1cc2c(=O)n3cc(C)ccc3nc2nc1NCC1CCCO1 (stereo not drawn)
-2.4%,0%,-1,-19%,CCOP(=O)(c1ccc(N(C)C)cc1)C(O)c1ccccc1 (stereo not drawn)
0.2%,15%,-2,-24%,Cc1ccc(C)c(NS(=O)(=O)c2cc(C(=O)Nc3ccccc3-c3ccccc3)ccc2Cl)c1
-0.1%,-5%,-6,-4%,Cc1cnc(C(=O)Nc2ccc(-n3cnnn3)cc2)cn1
0.9%,-6%,-1,11%,CCC(C)Sc1nnc(CSc2nc3nc(C)cc(C)n3n2)o1 (stereo not drawn)
-3.5%,-64%,-14,-21%,CCN(CC)c1ccc(/C=N/NC(=O)Nc2ccccc2)cc1
-0.2%,-6%,-5,2%,O=C(NCCC1=CCCCC1)C1CCN(S(=O)(=O)c2ccc(-n3cnnn3)cc2)CC1
0.4%,-1%,-28,-8%,CCOc1ccccc1CNC(CC)CO (stereo not drawn)
-3.6%,-1%,/,20%,C=CCn1nnnc1SCC(=O)Nc1ccc(C(=O)OC)cc1
-0.1%,0%,1,1%,CN(CCNC(=O)C1CCN(S(=O)(=O)c2cnc[nH]2)CC1)Cc1ccccc1
0.1%,-1%,/,-22%,Cc1cccc(NC(=O)c2cccc(C(=O)Nc3cccc(C)c3)c2)c1
/,1%,7,/,CCCC(=O)NCc1ccncc1
0.0%,/,/,15%,CCC(=O)N1CCc2cc(Br)c(S(=O)(=O)CCC(=O)NCCc3ccccc3)cc21
0.2%,/,/,1%,O=C1CC[C@@H]2CC(N3CCN(c4ccccc4)CC3)C[C@@H]3CCN1[C@H]23 (stereo partly drawn)
1.8%,15%,/,6%,COC(=O)c1ccc(N2CCCCC2)c(NC(=O)c2ccco2)c1
1.5%,1%,-5,-7%,O=C(O)c1sccc1S(=O)(=O)N1CCN(c2ccc(C(F)(F)F)cn2)CC1
1.8%,-1%,-10,17%,COc1ccc(C(=O)C[n+]2cccc(C)c2C)cc1[N+](=O)[O-]
2.7%,3%,7,1%,Cc1ccc(CC(=O)Nc2cccnc2)cc1
1.4%,-23%,0,-3%,CC(C)(C)c1ccc(C(=O)Oc2ccccc2CCC(=O)O)cc1
-6.5%,-1%,7,-7%,CC1=NNC(=O)C1CC(=O)N/N=C(\C)c1cccs1 (stereo not drawn)
2.9%,-2%,4,1%,O=C(CN1C(=O)CCS(=O)(=O)c2ccccc21)NCc1ccc(F)cc1
?,?,-4,?,Cc1ccc(S(=O)(=O)Nc2ccc(Br)cc2/C=N/n2cnnc2)cc1
0.5%,/,/,-4%,CCCCCN(C(=O)COC(=O)Cc1c(C)nc2ccccc2c1C)c1c(N)n(CCCC)c(=O)[nH]c1=O
0.8%,11%,-27,17%,Cc1ccccc1OC1C(=O)N(Cc2ccc3c(c2)OCO3)C1c1sccc1C (stereo not drawn)
-0.5%,19%,/,0%,COc1ccc(S(=O)(=O)N2c3ccccc3OCC2CC(=O)O)cc1 (stereo not drawn)
1.0%,-3%,/,1%,O=C(Cn1ncc2c([nH]c3ccccc32)c1=O)N1CCOCC1
-2.3%,-56%,3,0%,O=C(NCc1ccco1)c1ccc(-c2cccc(Cl)c2)o1
?,4%,4,12%,Cc1cc(C)nc(SCC(=O)N/N=C/c2cccn2-c2cccc(C(F)(F)F)c2)n1
-1.1%,-2%,-7,5%,CCOC(=O)c1c(-c2ccccc2Cl)csc1NC(=O)CSc1nc(C)cc(=O)[nH]1
?,3%,/,?,COc1cccc(OC)c1C(=O)Nc1sc2c(c1C(N)=O)CCN(Cc1ccccc1)C2
-3.0%,/,/,2%,Cc1ccc(CN2CC(C(=O)Nc3ccccc3N3CCCC3)CC2=O)cc1 (stereo not drawn)
-1.1%,0%,-10,-14%,CCn1c(O)c(C(C#N)=C2N=c3ccccc3=N2)c2ccccc21
2.4%,/,/,9%,COc1ccc(S(=O)(=O)N2CCN(C(=O)[C@@H]3CCCN3C(=O)c3cccs3)CC2)cc1
3.1%,-2%,/,-9%,Cc1ccc(C(=O)NC(C)c2ccccc2)cc1S(=O)(=O)N1CCOCC1 (stereo not drawn)
3.1%,4%,6,37%,COc1ccc(-n2nnnc2SCC(=O)Nc2ccccc2N2CCOCC2)cc1
-0.8%,-2%,-11,-7%,O=C1CCCC(O)=C1C=NCCc1ccccc1
-2.0%,/,/,?,CCN1/C(=C2/SC(=S)N(C)C2=O)C=Cc2cc(C)ccc21
3.7%,/,-18,0%,O[Si](CCCN1CCCCC1)(c1ccc(F)cc1)C1CCCCC1 (stereo not drawn)
?,-11%,-8,?,CC1CN(C2=Nc3cccc4cccc2c34)CC(C)O1 (stereo not drawn)
5.7%,3%,-9,5%,Cc1ccc(S(=O)(=O)CCC(=O)Nc2ccc(F)cc2)cc1
4.8%,-19%,1,1%,CCOc1ccc(NC(=O)c2nnn(CC(=O)Nc3ccccc3OC)c2N)cc1
2.0%,-6%,/,4%,Cc1ccn2cc(-c3cccc(S(=O)(=O)N4CCCCC4)c3)nc2c1
-1.2%,20%,-7,20%,O=C(Nc1ccc[n+](CC(=O)c2cccc3ccccc23)c1)c1ccccc1
-2.1%,2%,-1,17%,COc1cnc(-c2ccccn2)nc1Oc1ccc(Cl)cc1
1.6%,0%,0,15%,CC1CN(Cc2cnc(Cl)s2)CC(C)O1 (stereo not drawn)
-0.9%,-12%,7,-1%,CCCn1nnc(NC(=O)Cc2ccccc2)n1
-1.4%,-4%,/,-12%,CCCOc1ccc(C2C3=C(CCCC3=O)N(CC(=O)O)C3=C2C(=O)CCC3)cc1OCC
-7.5%,0%,2,-7%,COc1cc(=O)[nH]c(=O)n1CC(=O)c1ccccc1
0.4%,-2%,/,1%,Cc1ccc(NC2CCCN(C(=O)c3cnsn3)C2)cc1C (stereo not drawn)
-0.1%,28%,/,-10%,C=CCOc1ccccc1CN(C(=O)CCl)c1ccc2c(c1)OCO2
-2.0%,-7%,-1,2%,C=C(C)Cn1c(CCNC(=O)C(C)C)nc2ccccc21
0.4%,-20%,6,-13%,COc1cccc(C(=O)Nc2cc(C(=O)NCCc3ccccc3)ccc2Cl)c1
-1.5%,-4%,-9,-2%,COc1ccc(N(CC(=O)NC2CCCC2)C(=O)Cn2nnc(-c3ccc(OC)c(OC)c3)n2)cc1
5.2%,-35%,3,0%,Cc1ccnc(N/N=C/c2ccco2)n1
-1.1%,-3%,-7,32%,Cc1ccc(N2C(=O)C3C4C=CC(CNC(=S)Nc5cccc(Cl)c5)(O4)C3C2=O)cc1 (stereo not drawn)
?,19%,-1,-5%,COc1ccc(NC(=O)COC(=O)c2c(-c3ccccc3)noc2C)cc1
1.9%,-3%,4,?,CCCc1nnc(-c2cc(OC)c(OC)c(OC)c2)o1
-0.6%,/,/,14%,C[C@@H]1CN([C@H](C)CO)C(=O)c2cc(NC(=O)Nc3ccc(C(F)(F)F)cc3)ccc2O[C@H]1CN(C)S(=O)(=O)c1ccc(Cl)cc1
?,-8%,-1,-1%,COc1cccc(C(=O)Nc2nc(-c3ccc4c(c3)OCO4)cs2)c1
-1.8%,-1%,/,-5%,C=CCOc1ccccc1NC(=O)CN1C(=O)CNC1=O

Carrying on:
Rango complex inh,miR-21 reporter,GLA inh pH 4.5,Rango release inh,Molecule
1.1%,-9%,-11,-11%,COCCn1c(SCc2nc(N)nc(Nc3ccccc3C)n2)nc2ccccc2c1=O
-3.9%,3%,/,18%,CCn1c(SCC(=O)Nc2nncs2)nnc1C(C)NC(=O)c1ccccc1Br (stereo not drawn)
0.5%,8%,/,8%,CC1Sc2ccc(S(=O)(=O)CCC(=O)NCc3cccs3)cc2NC1=O (stereo not drawn)
1.3%,6%,-7,-16%,CC(OC(=O)c1cccc(S(=O)(=O)Nc2cccc(C(F)(F)F)c2)c1)C(=O)Nc1ccc2c(c1)OCCO2 (stereo not drawn)
3.9%,-3%,1,6%,CCOC(=O)N1CCN(C(=O)c2ccc(NS(=O)(=O)c3ccc(F)cc3)cc2)CC1
-4.3%,/,/,-1%,COc1cccc(/C=C/C(=O)OCC(=O)NCCNC(=O)COC(=O)/C=C/c2cccc(OC)c2)c1
-1.7%,-3%,9,-5%,CCCc1ccc(Oc2coc3cc(OCC(=O)Nc4ccccc4C)ccc3c2=O)cc1
4.1%,29%,-6,-14%,Cc1ccc(-c2nc(CSCC(=O)N3CCN(c4ccccn4)CC3)c(C)o2)cc1
-0.2%,-7%,-2,-4%,COc1cccc(C(=O)N2CCN(Cc3nc(CC4CC4)no3)CC2)c1
?,-65%,4,-10%,C(=C\c1ccco1)/c1ccc2ccccc2n1
-1.1%,-53%,5,16%,CCCCOC(=O)Nc1nnc(C(C)C)s1
0.9%,-52%,/,-8%,O=C(Cn1nnc(-c2ccccc2F)n1)N1CCCCC1
4.6%,0%,5,0%,COc1ccc(CCNc2ccncn2)cc1OC
?,-3%,1,1%,CCOC(=O)c1ccc(NS(=O)(=O)c2ccc3[nH]c(=O)[nH]c3c2)cc1
7.2%,-8%,-14,-4%,Cc1oc(-c2ccccc2)cc1C(=O)Nc1ccccc1
0.2%,/,/,2%,CC(OC(=O)Cc1c[nH]c2ccccc12)C(=O)Nc1ccc(S(N)(=O)=O)cc1 (stereo not drawn)
-2.3%,-2%,-19,-8%,Nc1nc2nonc2nc1N1CCCCC1
1.8%,-12%,5,0%,O=C(CCN1C(=O)c2ccccc2C1=O)C1=NN[C@@H]2C(=O)N(c3ccc4c(c3)OCO4)C(=O)[C@H]12
2.0%,0%,-5,-16%,CCOC(=O)C(C(=O)Nc1nccs1)C1CCCCC1 (stereo not drawn)
-6.0%,-7%,-3,6%,COc1ccc(S(=O)(=O)NCC2CCC(C(=O)NCc3ccco3)CC2)cc1 (stereo not drawn)
?,-4%,-3,-21%,Cc1nc(NC(=O)c2ccco2)sc1-c1csc(Nc2ccc(Cl)cc2Cl)n1
2.0%,13%,0,5%,CCN(CC)S(=O)(=O)c1cccc(NC(=O)CN(C)Cc2cccc(OC)c2)c1
5.3%,2%,-9,-13%,O=C(CNC(=O)c1ccccc1)NCCc1nc2ccccc2[nH]1
6.9%,-4%,-5,5%,CC(=O)c1cc(N2CCC(C(=O)O)CC2)ccc1[N+](=O)[O-]
1.6%,-1%,-7,3%,CCn1nc([N+](=O)[O-])c2c(-c3nc4ccccc4o3)c(N)n(CCCOC)c2c1=O
-1.1%,-10%,1,24%,Cc1cccc(N=C2NC(=O)CS2)c1
